VACV Venus inh: qHTS for Stage-Specific Inhibitors of Vaccinia Orthopoxvirus: Venus Reporter Primary qHTS. Vaccinia virus Venus reporter expression, fluorescence. Potency, µM (series often up to 36.5 µM), for inactives: at the top dose activity change, negative = inhibition, usual class: inhibitors. hit rate 0.46% among 330,000. AID 720580, 2013; active means well fitted inhibition curve with a large enough effect; inconclusive means small, poorly fitted or top-dose-only effect; inactive means no such curve, though single readings can be large or run the other way; tested in A549 cells; further: nearly all actives have a fitted effect of over 30% in size; inactives centre near -10
VACV mCherry inh: qHTS for Stage-Specific Inhibitors of Vaccinia Orthopoxvirus: mCherry Reporter Primary qHTS | Vaccinia virus mCherry reporter infection, fluorescence; about a quarter of the inactives have no number | Potency, µM (highest dose often 36.5 µM), without a hit: top-dose activity change, negative = inhibition, usual class: inhibitors | hit rate 0.63% among 310,000 | AID 720579, 2013; active = well fitted inhibition curve with a large enough effect; inconclusive = small, poorly fitted or top-dose-only effect; inactive = no such curve, though single readings can be large or run the other way; tested in A549 cells; further: nearly all actives have a fitted effect of over 35% in size; inactives centre near -10
Numbers without * were called inactive; i = inactive; ? = inconclusive; · = no result given; & = joins results of further samples; ! = a repeat was not active; [ ] = another dose, or the depositor's remark. On the % scale 0 is the no-effect control and ±100 the full control effect; potency means the concentration at half of the fitted maximal effect.

Preview:
SMILES | VACV Venus inh | VACV mCherry inh
COc1ccc(NC(=O)c2ccc3c(=O)n4c(nc3c2)CCCCC4)cc1 | -13% | -11%
O=C(CCc1ccccn1)N1CCCC(Nc2cccc(F)c2)C1 (stereo not given) | -4%[7.34 µM] | -11%[7.34 µM]
Nc1ncnc2c1c(I)cn2C1OC(CO)C(O)C1O (stereo not given) | ? | 16µM*!
COc1ccc(C(=O)NC(=S)NNC(=O)c2c(-c3ccccc3)noc2C)cc1 | -6% | -15%
CCc1ccc(Nc2ccc(S(=O)(=O)N3CCOCC3)cc2[N+](=O)[O-])cc1 | -16% | -4%
CC(C)[C@H](NC(=O)OCc1ccccc1)C(=O)OCc1cc(=O)oc2cc(O)ccc12 | -19% | -3%
COC(=O)[C@@]1(Cc2ccc(F)cc2)[C@H]2c3cc(C(=O)N(C)C)n(Cc4cc(C)n(C)n4)c3C[C@H]2CN1C(=O)c1ccccc1 | -21% | -17%

Main list, repeating the preview:
SMILES | VACV Venus inh | VACV mCherry inh
COc1ccc(NC(=O)c2ccc3c(=O)n4c(nc3c2)CCCCC4)cc1 | -13% | -11%
O=C(CCc1ccccn1)N1CCCC(Nc2cccc(F)c2)C1 (stereo not given) | -4%[7.34 µM] | -11%[7.34 µM]
Nc1ncnc2c1c(I)cn2C1OC(CO)C(O)C1O (stereo not given) | ? | 16µM*!
COc1ccc(C(=O)NC(=S)NNC(=O)c2c(-c3ccccc3)noc2C)cc1 | -6% | -15%
CCc1ccc(Nc2ccc(S(=O)(=O)N3CCOCC3)cc2[N+](=O)[O-])cc1 | -16% | -4%
CC(C)[C@H](NC(=O)OCc1ccccc1)C(=O)OCc1cc(=O)oc2cc(O)ccc12 | -19% | -3%
COC(=O)[C@@]1(Cc2ccc(F)cc2)[C@H]2c3cc(C(=O)N(C)C)n(Cc4cc(C)n(C)n4)c3C[C@H]2CN1C(=O)c1ccccc1 | -21% | -17%
NS(=O)(=O)c1ccc(NC(=O)CCC(=O)c2ccc(Cl)s2)cc1 | 0% | -12%
Clc1ccc2[nH]c3c(c2c1)CNCC3 | -15% | -10%
CC(Sc1nnc(Nc2ccccc2)s1)C(=O)Nc1nc(-c2ccccc2)cs1 (stereo not given) | 21% | ?
Cc1cccc(CN2CCN(C(=O)c3cccc4ccccc34)CC2)c1 | -8% | -4%
COc1cc(C(=O)Nc2ccc3c(c2)N(C2CCCC2)C(=O)c2ccccc2S3)cc(OC)c1OC | -22% | ?
O=c1[nH]c(O)c(C=Nc2ccc(Cl)cc2Cl)c(=O)[nH]1 | -13% | -1%
O=S(=O)(Nn1cnnc1)c1ccccc1Cl | -18% | i
COc1ccc(S(=O)(=O)N2CCC(C(=O)NCc3ccccn3)CC2)cc1C | -16% | ·
O=C(Cn1ncc2c3ccccc3n(Cc3ccc(Cl)cc3)c2c1=O)NCc1cccs1 | -14% | -10%
CCC(C(=O)NC1CCCC1)N(C(=O)Cn1nnc(-c2ccc(OC)c(OC)c2)n1)c1cccc(O)c1 (stereo not given) | 9% | -3%
COc1ccc(CN(C(=O)c2snc(C(N)=O)c2N)C(CC(C)C)C(=O)NC2CCCCC2)cc1 (stereo not given) | -9% | 3%
OCC[C@H]1C[C@H](O)[C@@H](O)[C@@]2(CCc3ccccc3CO2)O1 | 3% | i
N#Cc1ccc(NC(=O)COCc2cc(-c3ccc(F)cc3)on2)cc1 | -3% | -10%
Cc1cc(Cl)ccc1OCC(=O)NNC(=O)c1ccco1 | -11% | -19%
CCN(CC)S(=O)(=O)c1ccc2c(c1)N(CC(=O)N1CCN(c3ccc(OC)cc3)CC1)C(=O)CO2 | -11% | 1%
CCCN(C(=O)c1cccc(-n2cccc2)c1)c1c(N)n(Cc2ccccc2)c(=O)[nH]c1=O | -8% | -11%
Cc1ccc(N=Cc2cc(Cl)cc(Cl)c2O)nc1 | -9% | -9%
CC(C)(/C=N/NC(=O)CSCc1ccc(Cl)cc1)CCC#N | -10% | -21%
CC(C)(C)c1nn2cnnc2n(/N=C/c2cccc3ccccc23)c1=O | ? | -8%
COc1ccc(C(=O)Nc2ccc3oc(-c4cccc(Cl)c4)cc(=O)c3c2O)cc1 | -12% | i
Cc1c(CCOC(=O)CC23CC4CC(CC(C4)C2)C3)sc[n+]1CC(=O)c1ccc(Br)cc1 | -29% | -26%
CCNC(=S)N1CCN(CC)CC1 | -5% | -1%
Cn1c(=O)n(C)c2cc(C(=O)Nc3ccc4c(c3)OCO4)ccc21 | -7% | i[1.46 µM]
COc1ccccc1C(CNC(=O)c1cccc(S(=O)(=O)Nc2ccc(C)cc2)c1)N1CCCC1 (stereo not given) | -28% | -28%
N=c1sccn1CC(=O)N1CCc2ccccc21 | -5% | -10%
CC(=O)Nc1nc(N(C)C)nc(N(C)C)n1 | -1% | -2%
Fc1ccc(C2CC(c3cccs3)=NN2C(=S)Nc2ccccc2)cc1 (stereo not given) | -8% | i
CCOC(=O)c1cc(S(=O)(=O)Nc2cc(OC)ccc2OC)[nH]n1 | -3% | -3%
COC(=O)N(C)C[C@@H]1OCc2ccccc2-c2c(n(C)c3ccccc23)C(=O)N([C@H](C)CO)C[C@@H]1C | -29% | -5%

Quoted from the listing:
Value for NS(=O)(=O)c1ccc(NC(=O)CCC(=O)c2ccc(Cl)s2)cc1 in VACV Venus inh: 0%
Value for CCN(CC)S(=O)(=O)c1ccc2c(c1)N(CC(=O)N1CCN(c3ccc(OC)cc3)CC1)C(=O)CO2 in VACV mCherry inh: 1%
Value for O=S(=O)(Nn1cnnc1)c1ccccc1Cl in VACV Venus inh: -18%

Next part.
SMILES | VACV Venus inh | VACV mCherry inh
Fc1ccc(N2CCN(C(c3cccs3)c3nnnn3CCc3ccccc3)CC2)cc1 (stereo not given) | -2% | -10%
CCC1(c2ccccc2)C(=O)N(C)C(=O)N(C)C1=O | -6% | -1%
CCOC(=O)CSCC(=O)N1N=C(c2cccs2)CC1c1ccc(F)cc1 (stereo not given) | -1% | -10%
COc1cc(CC(=O)Nc2ncc(C)s2)cc(OC)c1OC | -18% | i
O=C1CSC2=NCN(c3ccccc3)CN12 | -4% | -14%
O=S1(=O)C[C@@H](N2CCCC2)[C@H](COCc2ccccc2)N1 | 4% | 10%
Cc1occc1C(=O)N/N=C/c1ccc(-c2ccccc2)cc1 | -8% | -8%
CCn1c(CSc2ncccn2)nnc1SCC(=O)N1CCc2ccccc21 | -7% | i
O=CN(Cc1ccccc1)c1cc([N+](=O)[O-])ccc1OCc1ccccc1 | -8% | -6%
CCCc1cc(C(=O)OC)c2ccccc2n1 | -5% | -12%
COC(=O)c1csc(C2OC(CO)C(O)C2O)n1 (stereo not given) | 3% | -14%
C#CCNC(=O)C[C@@H]1C[C@@]2(C(=O)OC)CC(C)(C)CC=C2N(CCCCCCCC)C1=O | -19% | -3%

Brought forward from above: 2 compounds, followed by the next part.
SMILES | VACV Venus inh | VACV mCherry inh
COC(=O)c1csc(C2OC(CO)C(O)C2O)n1 (stereo not given) | 3% | -14%
C#CCNC(=O)C[C@@H]1C[C@@]2(C(=O)OC)CC(C)(C)CC=C2N(CCCCCCCC)C1=O | -19% | -3%
O=C(O)CCNC(=O)c1ccc(NC(=O)Cc2ccc(Cl)cc2)cc1 | -5% | i
O=C(NCCN1CCOCC1)c1ccc(Cl)c(S(=O)(=O)N2CCCCC2)c1 | -8% | -3%
Cn1c(Cn2c(=O)sc3ccccc32)nnc1SCc1ccccc1 | -6% | -6%
Cc1ccccc1-c1cc2c(c(OC3CCOC3)c1)OCCN(C(=O)Cn1cccn1)C2 (stereo not given) | -10% | i
COc1ccc(NC(=O)c2ccc(NCCN3C(=O)CCC3=O)c([N+](=O)[O-])c2)cc1 | 13% | 9%
COc1cc(-c2nnc(Cn3cc(C(F)(F)F)ccc3=O)o2)cc(OC)c1OC | -15% | -16%
Cc1ccsc1-c1nc(CN(C)C(C2CC2)C2CC2)c(C)o1 | -18% | -4%
O=c1[nH]ncc(N2CCN(Cc3ccccc3)CC2)c1Cl | 1% | 5%
O=C(O)C1C2C=CC3(CN(CC(O)COc4ccccc4)C(=O)C13)O2 (stereo not given) | -25% | ·
Cc1ccc(Cl)cc1NC(=O)c1ccc(CSc2nnnn2C)cc1 | -7% | ·
O=C(Nc1ccc2c(c1)CCC2)c1cc(S(=O)(=O)Nc2ccc(F)cc2)c(Cl)cc1Cl | -27% | -17%
CN(C(=O)c1cccnc1)c1nnc(-c2cccnc2)s1 | -13% | -15%
CCCN1CCN(c2ncnc3sc(C(=O)Nc4ccc(N(CC)CC)cc4C)c(C)c23)CC1 | -10% | -14%
COc1ccc(CN2C(=O)c3ccccc3C2C(=O)NC2CCC(C)CC2)c(OC)c1 (stereo not given) | 15% | -17%
CCn1c(-c2ccccc2F)nc2cc(NC(C)=O)cc(C(=O)N3CCC[C@H]3C(=O)OC)c21 | 0% | i
O=C(Nc1ccc(N2CCOCC2)cc1)NC1CCCCC1 | -10% | -9%
CNc1ccc(Br)cc1C(O)c1ccccc1 (stereo not given) | -10% | -16%
CC/C(CC(c1ccccc1)c1c(O)c2ccccc2oc1=O)=N\NC(N)=S (stereo not given) | ? | 14µM*
O=c1cc(N2CCCC2)c(-c2ccccc2)n[nH]1 | -6% | i
CC(=O)C1CCC2C3CC(C)C4=CC(=O)CCC4(C)C3C(=O)CC12C (stereo not given) | -3% | -18%
COCCn1c(-c2ccccc2)csc1=Nc1cccnc1 | -7% | i
CS(=O)(=O)Cc1ccc(C(=O)NCC2(N3CCCCC3)CCCCC2)cc1 | -7% | -8%
O=C(NCc1ccccc1)c1ccc(C(=O)NCc2ccccc2)cc1 | 4% | -13%
O=C(/C=C/NNC(=O)c1ccccc1)c1ccccc1 | -19% | ·
Cn1nnnc1CCOCCc1nnnn1C | -16% | ·
CCCCn1c(=N)n(CC(=O)c2ccco2)c2ccccc21 | -19% | -25%
CC1CN(C(=O)COC(=O)c2ccc3ncsc3c2)CC(C)O1 (stereo not given) | -6% | -1%
CCC(=O)N1c2ccc(S(=O)(=O)CCC(=O)Nc3nccs3)cc2CC1C (stereo not given) | -10% | -6%
COc1cc(OC)cc(C(=O)NCCCCc2ccccc2)c1 | -20% | -16%
Cc1ccc(NC(=O)CSc2nc3c(cc2C#N)C(=O)CCC3)cc1S(=O)(=O)N(C)C | 9% | -14%
CCOC(=O)c1c(NC(=O)CSc2nc(-c3ccc(OC)cc3)cc(C(F)(F)F)n2)sc(C)c1C | 9% | -2%
COc1cccc(CNCCNC(=O)c2ccco2)c1OC | -3% | -9%
COc1ccc([C@H]2C(C(=O)O)=C[C@@H](CC3CCCC3)N2S(=O)(=O)c2ccc(C)cc2)cc1OC | -2% | 6%
CCOC(=O)N1CCC(Nc2c(NCCN3CCN(Cc4ccccc4)CC3)c(=O)c2=O)CC1 | -8% | -15%
COc1ccc(CSC2=CS(=O)(=O)c3ccccc3N2)cc1 | -26% | -34%
CC(=O)c1ccc(NC(=O)CN(C)CC(=O)Nc2cccc(F)c2)cc1 | -7% | i
CCOC(=O)c1ccc(NC(=O)CSCC(=O)OCC(=O)c2ccccc2)cc1 | -9% | -2%
N#CCCCSc1nnc(CSc2nc3ccccc3s2)n1-c1ccccc1 | ? | -5%[1.46 µM]
CC(OC(=O)CNC(=O)c1ccc(Cl)cc1)C(=O)NC1CCCCC1C (stereo not given) | -11% | -19%
Cc1cc(C)c(Cn2c3ccccc3c3cnn(CC(=O)NC4CCC(C)CC4)c(=O)c32)c(C)c1 (stereo not given) | -6% | -3%
CC1(CCc2ccccc2)NC(=O)N(CC(=O)N2CCCCCC2)C1=O (stereo not given) | -4% | -10%
COCCCNC(=O)C1C2C=CC3(CN(Cc4ccc(C)cc4)C(=O)C13)O2 (stereo not given) | -4% | -8%
Cc1csc(C)[n+]1CCC1CCCCC1 | ? | -22%
O=Cc1ccccc1-c1cn(CCCOCc2ccccc2)nn1 | -23%&-4% | i
CC(=O)NCCNc1nc(NCC2CC2)nc2cc(-c3ccccc3)sc12 | -21% | -21%
O=C(CSc1c2c(nc3ccc(Cl)cc13)CCCC2)N1CCN(c2ccc(Cl)cc2)CC1 | -28% | -25%
O=C(C1CCCN(Cc2ccccc2)C1)N1CCCCC1 (stereo not given) | -8% | -16%
N#Cc1ccc(OCC(=O)NCCc2ccccn2)cc1 | -13% | ·
CCn1c(SCC(=O)OC(C)C)nnc1-c1cccc(Cl)c1 | 3% | -11%
c1ccc(OCCOCCSc2ncccn2)cc1 | -3% | i
Cc1cc(C)c[n+](-c2nc([O-])sc2C=O)c1 | -2% | ·
Cc1cc(C)cc(NC(=O)CSc2ccccc2)c1 | -8% | -5%
O=C(O)c1cc(-n2[nH]c(=O)c3ccccc3c2=O)ccc1Cl | -1% | -1%
CCC(CO)Oc1cc(NCc2ccc(C(F)(F)F)cc2)c2ncn(C(C)C)c2c1 (stereo not given) | -22% | -26%
CCOC(=O)c1cc(-c2ccccc2)nn1-c1ccccn1 | -10% | i
CCCCOC(=O)COc1ccc(Cl)cc1Cl | -11% | i
O=C(C1c2ccccc2Oc2ccccc21)N1CCN(c2ccc(Cl)cc2)CC1 | ? | ?
CCCCCCC(=O)Nc1ccc2nc3c(=O)n(C)c(=O)n(C)c3nc2c1C | 3% | 0%
O=C(NCCN1CCOCC1)c1cc(-c2ccccc2Cl)on1 | -9% | -7%
C[C@H](CO)N1C[C@H](C)[C@H](CN(C)S(=O)(=O)c2cccs2)Oc2ccc(NC(=O)Nc3ccc4c(c3)OCO4)cc2CC1=O | ? | -22%
CC(NC(=O)NNC(N)=S)(C(F)(F)F)C(F)(F)F | 28µM* | ?
CCOc1ccc(OCC(=O)NCCS(=O)(=O)N2CCN(c3ccc(F)cc3)CC2)cc1 | -11% | -14%
COc1cc(/C=N/Nc2nc3ccccc3[nH]2)ccc1O | -22% | -9%

Bioassay records from PubChem BioAssay.
